HPGD inh = qHTS Assay for Inhibitors of HPGD (15-Hydroxyprostaglandin Dehydrogenase). purified HPGD, NADH fluorescence kinetic, PGE2 substrate. 15-hydroxyprostaglandin dehydrogenase [NAD(+)] (Homo sapiens), P15428. Potency, µM, for inactives: at the top dose activity change, negative = inhibition, most hits filed as inhibitors. AID 894, 2007. hit rate 4.3% among 150,000; active = well fitted inhibition curve with a large enough effect (not every such curve was filed as active); inconclusive = small, poorly fitted or top-dose-only effect, or another doubt; inactive = no such curve, though single readings can be large or run the other way;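 further: top concentration of the series not given in the record; plate controls included wells without enzyme; inactives centre near -10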
Target sequence (P15428 whole entry, looked up): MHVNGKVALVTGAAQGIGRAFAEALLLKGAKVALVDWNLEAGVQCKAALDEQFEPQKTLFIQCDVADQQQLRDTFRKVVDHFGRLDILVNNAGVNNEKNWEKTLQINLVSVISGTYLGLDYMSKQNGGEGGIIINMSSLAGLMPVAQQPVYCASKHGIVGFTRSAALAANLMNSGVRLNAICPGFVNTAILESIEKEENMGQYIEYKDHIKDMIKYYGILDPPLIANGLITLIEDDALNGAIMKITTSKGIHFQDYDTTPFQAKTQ
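NADH formation kinetics: reaction with 30 uM PGE2 and 1 mM NAD+ (final), 20 nM enzyme, Tris-HCl pH 8 with Tween 20, after 15 min compound preincubation at room temperature. Fluorescence change, last versus first of five reads.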
The depositor's hits bear a star; ? = inconclusive; & = joins results of further samples. On the % scale 0 is the no-effect control and ±100 the full control effect; potency means the concentration at half of the fitted maximal effect. Only part of the results is shown (hit frequency here may not be typical).

SMILES	HPGD inh
CC(=O)c1cccc(NC(=O)CSC(=O)c2ccccc2)c1	-10.2%
CCN1CCN(CC(=O)Nc2ccc(Cl)c(Cl)c2)C(=O)C1=O	-2.1%
Cc1ccc(NCCC#N)cc1C	-3.6%
O=C(NCc1cccs1)O[C@H]1C[C@H]2CC[C@@H]1C2	-3.7%
CCCCNc1nc2ccccc2n1CC(=O)Nc1c(C)cccc1CC	-6.0%
N#C/C(=C/c1ccc(Br)o1)C(N)=O	-16.7%
NC(=O)NC1CCCc2c1[nH]c1ccc(Cl)cc21 (stereo not given)	-6.7%
OCC(CO)(CO)n1cnnn1	-8.3%
Cc1cccc(-c2cc3nc4c(c(NCc5ccco5)n3n2)CCCC4)c1	?
Cc1ccc(-c2nnc(CSc3nnc(COc4ccccc4)n3-c3ccc(C)cc3)o2)cc1	-23.4%
CCCCN(C)C/C(O)=C(\C#N)c1nc(-c2ccccc2)cs1	-8.0%
O=C(CN1CCN(S(=O)(=O)c2ccc(Br)cc2)CC1)Nc1ccc2c(c1)OCCO2	-10.0%
Cc1ccc(-n2nc3ccc(NC(=O)c4ccco4)cc3n2)cc1	?
Cc1c(NC(=O)Nc2ccccc2Cl)sc(=S)n1C	?
CC1(C)Cc2c(sc(/N=C/N3CCOCC3)c2C#N)C(C)(C)N1	-10.5%
CCCCCCCNC(=O)COc1ccc2c(c1)C(=O)CC(C)(C)O2	?
Cc1cccc(C)c1NC(=O)COC(=O)c1c2c(nc3ccccc13)/C(=C\c1ccc3c(c1)OCO3)CCC2	?
O=C(O)c1ccc(CS(=O)(=O)c2cccc(C(F)(F)F)c2)o1	-2.4%
O=C1c2ccccc2C(=O)N1CCc1nc2ccccc2c(=O)n1-c1ccccn1	-2.5%
CCN1C(=O)c2cccc3c(S(=O)(=O)NCc4cccnc4)ccc1c23	-25.3%
O=c1cc(-c2cccc(O)c2)oc2cccc(O)c12	-9.7%
O=C(Nc1ccccc1)N1CCCC2(CCN(C(=O)c3cnccn3)CC2)C1	-5.3%
O=c1c2ccccc2nc2ccc(NCc3ccco3)nn12	?
O=C(c1ccco1)N1CCN(C(c2ccccc2Cl)c2nnnn2CC2CCCO2)CC1 (stereo not given)	-7.2%
COc1cc(/C=N/NC(=O)COc2ccc(Cl)cc2)ccc1OS(=O)(=O)c1ccc(C)cc1	-16.2%
Additional results.
SMILES	HPGD inh
Cc1ccc(-n2c(SCC(=O)N/N=C/c3c(C)nn(-c4ccccc4)c3C)nc3ccccc3c2=O)cc1	-7.0%
COc1ccccc1CNC(=S)NC1CCCC1	-23.1%
CC1=CC(C)(C)N2C(=O)C3(N=C(N)NC(Nc4ccccc4)=N3)c3cc(C)cc1c32 (stereo not given)	-7.5%
N#Cc1c(-c2ccccc2)nc(SCC(=O)Nc2ccccc2F)[nH]c1=O	15.8µM*
CCN(CC)S(=O)(=O)c1ccc(NC(=O)CSc2nnc(-c3ccc(F)cc3)o2)cc1	-2.4%
COc1ccc(C2CC3(CC(C)(C)NC(=S)N3)Oc3cc(O)cc(C)c32)cc1 (stereo not given)	-8.6%
CC(=O)OCc1c(C(F)(F)F)nn(C)c1Oc1cccc(C(F)(F)F)c1	-12.0%
O=c1c(-c2ccnn2-c2ccc(F)cc2)cnc2n1CCS2	-16.4%
NC(=O)c1sc2nc3c(c(-c4ccco4)c2c1N)CCC3	-22.7%
COCC(=O)N(Cc1cc2cc(OC)ccc2[nH]c1=O)c1ccccc1OC	?
Cc1ccc(S(=O)(=O)N2CCC(=O)N2)cc1	-9.3%
CCOc1ccc(N/C=C/C(=O)c2ccccc2)c([N+](=O)[O-])c1	-16.9%
O=C(Cc1ccccc1)NC(=S)Nc1cc(C(F)(F)F)ccc1Cl	-5.6%
C=CCn1c(=O)c(C(=O)Nc2ccccc2C(=O)OCC)c(O)c2ccccc21	?
CCn1cc(C(=O)N2CCc3ccccc3C2)c(=O)c2cc(S(=O)(=O)N3CCCCC3)ccc21	-2.9%
CNS(=O)(=O)c1ccc(OC)c(-c2nnc3c4ccccc4c(C)nn23)c1	15.8µM*
O=C(/C=C/Nc1ccc([N+](=O)[O-])cc1)c1ccc(Br)cc1	-3.1%
COc1ccc(-c2nnc(SCC(=O)N(Cc3ccccc3)C(C)(C)C)o2)cc1OC	?
Cc1ccc(NC(=O)c2ccc(OCC3CCCO3)cc2)cc1 (stereo not given)	-4.3%
CN(C)C(=O)CSc1nnc(CCN)o1	-7.9%
COc1cc(CN2CCC(C(=O)N3CCCC(C)C3)CC2)cc(OC)c1O (stereo not given)	-3.0%
COc1cc(CNc2ccc(C)c(C)c2)cc(OC)c1OC	-10.8%
c1ccc2c(C3=NNC(=NC4CCCCC4)SC3)c[nH]c2c1	-13.4%
CCOC(=O)c1sc(NC(=O)CCN2CC(C)OC(C)C2)c(C(=O)OCC)c1C (stereo not given)	-4.3%
Nc1nncn1C(=O)c1ccccc1Cl	-13.1%

Reprinted at random: 2 compounds from above, in no set order.
SMILES	HPGD inh
CC(=O)OCc1c(C(F)(F)F)nn(C)c1Oc1cccc(C(F)(F)F)c1	-12.0%
Cc1ccc(S(=O)(=O)N2CCC(=O)N2)cc1	-9.3%

Returning to the listing, starting five compounds before the break.
SMILES	HPGD inh
COc1cc(CN2CCC(C(=O)N3CCCC(C)C3)CC2)cc(OC)c1O (stereo not given)	-3.0%
COc1cc(CNc2ccc(C)c(C)c2)cc(OC)c1OC	-10.8%
c1ccc2c(C3=NNC(=NC4CCCCC4)SC3)c[nH]c2c1	-13.4%
CCOC(=O)c1sc(NC(=O)CCN2CC(C)OC(C)C2)c(C(=O)OCC)c1C (stereo not given)	-4.3%
Nc1nncn1C(=O)c1ccccc1Cl	-13.1%
O=[N+]([O-])c1ccc(NCCO)c(OCCO)c1	-8.4%
Cc1cccc(OCC(=O)Nc2ccc(N3CCN(S(C)(=O)=O)CC3)cc2)c1	-6.4%
N#CC[N+]1(Cc2ccccn2)CCCC1	-13.5%
COC(=O)c1c(NC(NC(C)=O)C(Cl)(Cl)Cl)sc2c1CCCC2 (stereo not given)	-8.2%
CN(CCc1ccc(Cl)c(Cl)c1)CCN1CCCC1	-8.2%
CCN(CC)CC(=O)c1c[nH]c2ccccc12	-6.3%
COCCn1c(SCC(=O)Nc2ccc(C)cc2C)nc2c(oc3ccccc32)c1=O	-16.6%
O=C(CSc1nnc2c(n1)[nH]c1ccc(F)cc12)OCc1ccccc1	-7.9%
O=C1c2ccccc2C(=O)c2c(Nc3ccc4c5c(cccc35)C(=O)c3ccccc3-4)cccc21	-0.2%
CCCCc1nnc(SCc2ccc(OCC)cc2)n1N	25.1µM*
O=C(NCC(=O)N(Cc1cccs1)C(C(=O)NC1CCCCC1)c1ccco1)c1cccs1 (stereo not given)	-5.9%
O=C(CN1C(=O)S/C(=C/c2cc(Br)cs2)C1=O)N1CCOCC1	-7.5%
CCCc1nc(SC2CCCC2)c2c(=O)n(C)c(=O)n(C)c2n1	-0.6%
CN(C)Cc1ccc(F)cc1Sc1ccc(Cl)cc1Cl	-9.2%
O=C(Cn1cc2c(n1)CCCC2)N1CCc2ccccc21	-12.0%
COc1ccc(-c2nn(-c3ccccc3)cc2C(=O)n2nnc3ccccc32)cc1	?
COc1ccc(C(=O)NCc2nc3ccccc3[nH]2)cc1OC	-6.6%
O=C1c2oc3ccccc3c(=O)c2C(c2cccc(O)c2)N1CCCN1CCOCC1 (stereo not given)	-5.8%
Cn1c(=O)c2c(nc(Sc3nc4ccccc4n3CC(=O)N3CCCCC3)n2C)n(C)c1=O	-13.7%
CCCCc1ccc(NC(=O)OC)cc1	-17.4%
CCOc1ccc(CCn2c(-c3ccco3)nc3ccccc3c2=O)cc1OCC	-8.2%
COc1cccc(C(=O)Nc2ccc(S(=O)(=O)Nc3nccc(C)n3)cc2)c1	28.2µM*
O=C(CSc1nc2ncc(Br)cc2[nH]1)c1cccc([N+](=O)[O-])c1	7.94µM*
CC1=C(C)CC(C(=O)NNC(=O)c2csc3c2CCC(C(C)(C)C)C3)C(C(=O)O)C1 (stereo not given)	-0.5%
Cc1ccc(S(=O)(=O)N(CCCO)CC(O)CON=C2c3ccccc3-c3ccccc32)cc1 (stereo not given)	-9.5%
The list continues.
SMILES	HPGD inh
Cc1ccc(N=C2NC(=O)/C(=C\c3ccco3)S2)cc1	?
O=C(c1cc(Cl)ccc1Cl)N1CCOCC1	-17.3%
CCCCCCCCOC(=O)C(NC(=O)CCC(=O)Nc1ccc(S(N)(=O)=O)cc1)C(O)c1ccccc1 (stereo not given)	-4.8%
CCC(C)C(=O)Nc1cc([N+](=O)[O-])ccc1Cl (stereo not given)	-1.1%
Cc1cccc2cc(CN(Cc3ccccc3)C(=O)c3cccc(F)c3)c(Cl)nc12	-21.9%
CCOC(=O)Cn1c(CN(Cc2ccccc2)Cc2ccccc2)nc2c1c(=O)n(C)c(=O)n2C	-16.3%
O=C(c1cccc(S(=O)(=O)N2CCCC2)c1)c1nnc(-c2ccncc2)o1	-3.9%
O=C(Nc1cc(C(F)(F)F)ccc1F)C1CCC1	-10.4%
CCC(=NCCc1c(C)[nH]c2ccccc12)C1=C(O)CC(c2ccccc2)CC1=O (stereo not given)	?
O=C(NCCCn1ccnc1)c1sc2cccc(F)c2c1Cl	-19.5%
Cc1c(NC(=O)c2ccc(Cl)s2)c(=O)n(-c2ccccc2)n1C	-1.7%
O=C1CCCN1Cc1ncnn1-c1ccccc1	-3.5%
O=C1C2=C(S[C@@H]3O[C@H](CO)[C@@H](O)[C@H](O)[C@H]3O2)C(=O)c2ccccc21	?
CCC(=O)N1CCN(c2cc(C)ccc2C)CC1	-0.1%
COc1cccc(N(C(=O)Cn2nnc(-c3ccc(C)o3)n2)C(C(=O)NC(C)(C)C)c2cccs2)c1 (stereo not given)	1.4%
COc1ccc(NC(=O)C2CC(=O)N(c3cc(C)ccc3C)C2)cc1 (stereo not given)	-2.2%
Cn1c(-c2ccccc2)cnc1SCc1nc2ccccc2c(=O)[nH]1	-20.9%
CCCCCCNC(=O)Nc1ccccc1	-24.5%
O=C(CSc1nnc(-c2ccco2)n1Cc1ccccc1)NCc1ccccc1	-18.7%
CN(C)CCCNc1ncnc2c1cnn2-c1ccccc1	-22.5%
CC(=O)c1cccc(NC(=S)NC(=O)c2ccc(Cl)cc2)c1	-20.6%
COc1cccc([C@@H]2Oc3ccc(Br)cc3C(=O)[C@H]2OC(=O)NS(=O)(=O)c2ccc(C)cc2)c1	-6.4%
NC(=O)c1cc2ccc(O)cc2oc1=Nc1ccccc1	?
O=C1CC(c2ccccc2)CC(O)=C1C=NCc1ccc(Cl)cc1 (stereo not given)	-13.2%
O=C(Nc1ccccc1F)c1ccc(S(=O)(=O)NCC2CCCO2)cc1 (stereo not given)	0.8%
More entries follow.
SMILES	HPGD inh
COc1ccc(NC(=O)COC(=O)C2CCCCC2)c([N+](=O)[O-])c1	?
Cc1ccnc(NS(=O)(=O)c2ccccc2)n1	-9.9%
CCn1cc(Br)c(C(=O)N2CCN(c3ccccc3)CC2)n1	-4.0%
Cc1cccc(NC(=S)NNc2ncc(C(F)(F)F)cc2Cl)c1	-18.0%
Cc1nc2ccc(NC(=O)c3cccc(S(=O)(=O)N(C)c4ccccc4)c3)cc2s1	-24.8%
CC(C)N1C(=O)/C(=C\c2nc3ccccc3c(=O)n2-c2ccccc2)c2ccccc21	-13.4%
Cc1ccc2nsnc2c1S(=O)(=O)Nc1cccc2nsnc12	?
Cc1ccc(-n2nc(C)c3c(C)c(CCC(=O)NCc4ccccc4)c(C)nc32)cc1	?
CC(C)(C)C1CCC(=NNC(=O)C(=O)NC2CCCCC2)CC1 (stereo not given)	-12.9%
COc1ccc2c(c1)O[C@@H](c1cccc(C(F)(F)F)c1)[C@H](OC(=O)NCCc1ccc(OC)c(OC)c1)C2=O	-10.8%&-12.8%
CN(c1ccccc1)S(=O)(=O)c1ccc(NC(=S)NC(=O)c2ccccc2)cc1	-19.5%
O=c1nccc(NCc2ccco2)[nH]1	-7.4%
Cc1nc2ncnn2c(C)c1CCC(=O)N1CCCCC1	-10.6%
O=C(COc1ncnc2scc(-c3ccc(Cl)cc3)c12)NCc1ccco1	-16.2%
CCOC(=O)c1sc(NC(=O)c2cc(S(=O)(=O)N3CCOCC3)ccc2C)nc1C	-6.4%
CN(C)S(=O)(=O)c1cccc(NC(=O)COC(=O)/C=C/c2ccco2)c1	-15.5%
COc1ccc(OC)c2c1sc(=NC(=O)c1cccc(N3C(=O)CCC3=O)c1)n2C	-21.3%
CCOc1ccc(C(CC(=O)O)NS(=O)(=O)c2ccc(C)cc2)cc1OC (stereo not given)	-20.4%
COc1cccc([C@@H]2Oc3ccc(Br)cc3C(=O)[C@H]2OC(=O)NCCOc2ccccc2)c1	-7.2%
Cc1ccc(-c2cnn(-c3cccc(C(F)(F)F)c3)c2N)cc1	-28.1%
Cc1ccc(NC(=O)CSCC(=O)N2CCOCC2)cc1	2.7%
CCC(C)Nc1c2c(nc3c(-c4ccccc4)c(C)nn13)CCC2 (stereo not given)	-21.3%
Nc1nc(CSCc2ccccc2)nc(N2CCOCC2)n1	-10.6%
Cc1nnc(-c2ccco2)c2cn(-c3cccc(Br)c3)nc12	-14.1%

Four compounds already listed, ordered by the number in HPGD inh, lowest first.
structure,HPGD inh
O=C(CSc1nc2ncc(Br)cc2[nH]1)c1cccc([N+](=O)[O-])c1,7.94µM*
N#Cc1c(-c2ccccc2)nc(SCC(=O)Nc2ccccc2F)[nH]c1=O,15.8µM*
CCCCc1nnc(SCc2ccc(OCC)cc2)n1N,25.1µM*
COc1cccc(C(=O)Nc2ccc(S(=O)(=O)Nc3nccc(C)n3)cc2)c1,28.2µM*

High-throughput results as filed in PubChem BioAssay.
